Bioassay records from PubChem BioAssay.
Cruzain inh Det = qHTS Assay for Promiscuous and Specific Inhibitors of Cruzain (with detergent); Cruzipain (Trypanosoma cruzi), P25779; purified cruzain, Z-FR-AMC fluorescence, 0.01% Triton; actives 0.43% (n = 200,000); Potency, µM, inactives show max response, negative = inhibition, usual class: inhibitors; AID 1478, 2009; active = well fitted curve in the direction sought with a large enough effect; inconclusive = small, poorly fitted or top-dose-only effect, or another doubt; inactive = no such curve, though single readings can be large; an effect the other way counts as inactive or inconclusive;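 also: plate controls were neutral wells for no effect and buffer without enzyme for full effect; nearly all actives have a fitted effect of over 40% in size; top concentration of the series not given in the record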
Target sequence (P25779 123-467 limits assumed): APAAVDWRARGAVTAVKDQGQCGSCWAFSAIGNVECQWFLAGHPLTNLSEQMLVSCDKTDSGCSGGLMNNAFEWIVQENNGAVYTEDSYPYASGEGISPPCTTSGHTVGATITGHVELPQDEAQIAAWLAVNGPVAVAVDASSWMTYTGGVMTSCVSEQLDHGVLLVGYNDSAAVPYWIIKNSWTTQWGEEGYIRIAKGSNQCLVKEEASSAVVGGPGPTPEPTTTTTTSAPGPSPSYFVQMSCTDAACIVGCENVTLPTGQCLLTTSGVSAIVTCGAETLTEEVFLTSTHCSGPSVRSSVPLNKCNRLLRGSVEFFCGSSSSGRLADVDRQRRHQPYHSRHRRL
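Purified cruzain (1.5 nM final) was preincubated with compounds for 15 min at room temperature in 100 mM sodium acetate pH 5.5, 5 mM DTT, 0.01% Triton X-100. Reaction started with 2 uM Z-FR-AMC; AMC fluorescence change over 60 s gave activity.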
RE007 growth inh = qHTS Assay for Inhibitors of the HIV-1 protein Vpr. S. pombe RE007 Vpr strain, BacTiter-Glo ATP luminescence, 24 h; control for the full effect not named in the record. Potency, µM (highest dose often 92.2 µM), inactives show at the top dose activity change, negative = less growth. actives 0.21% (n = 360,000); active = well fitted falling curve with a large enough effect; inconclusive = small, poorly fitted or top-dose-only effect; inactive = no such curve, though single readings can be large or run the other way;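 also: % is scaled to controls: 0 for no effect and ±100 for the full control effect; nearly all actives have a fitted effect of over 50% in size; the assay follows cell death caused by Vpr and the record does not say whether a fall means rescue or toxicity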
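Fission yeast strain RE007, carrying one chromosomally integrated HIV-1 vpr copy, was seeded at OD 0.01 in PMG+AL medium with 23 nL pinned compound. After 24 h at 30 °C and 99% humidity, viability was read by BacTiter-Glo luminescence.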
LASV entry inh = qHTS for Inhibitors of binding or entry into cells for Lassa Virus. Potency, µM (series often up to 37.9 µM), inactives show at the highest dose activity change, negative = inhibition, most hits filed as inhibitors. actives 1.2% (n = 300,000). Lassa virus pseudotype entry inhibition, cell reporter; control for the full effect not named in the record; active means well fitted inhibition curve with a large enough effect; inconclusive means small, poorly fitted or top-dose-only effect, or effect the other way; inactive means flat fitted curve, though single readings scatter; tested in HEK293 cells; also: % is scaled to controls: 0 for no effect and ±100 for the full control effect; nearly all actives have a fitted effect of over 50% in size; luciferase read-out
StopGo reporter = High Throughput Screening for Foot and Mouth Disease Virus Antivirals. human cells with a luciferase reporter of 2A StopGo recoding; control for the full effect not named in the record. Potency, µM (doses to about 57.9 µM), for inactives: at the highest dose signal change, negative = less light. actives 1.2% (n = 410,000); active = well fitted falling curve with a large enough effect; inconclusive = small, poorly fitted or top-dose-only effect; inactive = no such curve, though single readings can be large or run the other way; tested in HEK293T cells; also: % is scaled to controls: 0 for no effect and ±100 for the full control effect; nearly all actives have a fitted effect of over 45% in size; luciferase light after 4 h
MARV entry inh = qHTS for inhibitors of binding or entry into cells for Marburg Virus; Marburg virus pseudotyped entry inhibition, cell reporter; control for the full effect not named in the record; about a third of the inactives were read at about 46 µM; Potency, µM (series often up to 37.8 µM), inactives show top-dose activity change, negative = inhibition, usual class: inhibitors; actives 1.8% (n = 300,000); AID 540276, 2011; active = well fitted inhibition curve with a large enough effect; inconclusive = small, poorly fitted or top-dose-only effect, or effect the other way; inactive = flat fitted curve, though single readings scatter; tested in HEK293 cells; about a fifth of its hits are not listed in these tables; also: % is scaled to controls: 0 for no effect and ±100 for the full control effect; luciferase read-out
Cruzain noTriton = qHTS Assay for Promiscuous and Specific Inhibitors of Cruzain (without detergent); Potency, µM, inactives show max response, negative = inhibition, hits mostly inhibitors; purified cruzain, Z-FR-AMC fluorescence, no detergent; actives 2.3% (n = 200,000); active = well fitted curve in the direction sought with a large enough effect; inconclusive = small, poorly fitted or top-dose-only effect, or another doubt; inactive = no such curve, though single readings can be large; an effect the other way counts as inactive or inconclusive;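 also: plate controls were enzyme without inhibitor for no effect and buffer without enzyme for full effect; nearly all actives have a fitted effect of over 40% in size; top concentration of the series not given in the record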
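Purified cruzain at 1.5 nM, pre-incubated 15 min with compound at room temperature in 100 mM sodium acetate pH 5.5, 5 mM DTT, 0.00005% Triton X-100. Reaction started with 2 uM Z-FR-AMC; AMC fluorescence increase over 60 s gives rate.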
SARS PLpro yeast = qHTS of Yeast-based Assay for SARS-CoV PLP; Potency, µM (top dose mostly 32.9 µM), without a hit: top-dose activity, positive = growth rescue; actives 0.19% (n = 330,000); S. cerevisiae expressing SARS-CoV PLpro, growth rescue; control for the full effect not named in the record; also: 0% is about no effect; nearly all actives have a fitted effect of over 55% in size; growth read by luminescence after 48 h
NS1 function inh = qHTS Assay for Inhibitors of Influenza NS1 Protein Function. actives 0.4% (n = 270,000). AID 2326, 2010. S. cerevisiae slowed by influenza A NS1, growth recovery by OD600. Potency, µM (doses to about 46.1 µM), without a hit: at the highest dose activity, positive = more growth; also: actives are rising curves; nearly all actives have a fitted effect of over 50% in size
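Growth recovery, yeast-based: influenza A NS1 expressed in S. cerevisiae causes slow growth, and suppressors are detected by OD600. The parent strain without NS1 is used as positive control.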
Active calls of the source: *; u = inconclusive; x = no result given; & = joins results of further samples; [ ] = remark or other dose. Unless noted, calls follow the shape of the dose curve; as a rule, active means well fitted rising curve with a large enough effect; inconclusive means small, poorly fitted or top-dose-only effect; inactive means no such curve, though single readings can be large or run the other way. Potency is read from the fitted curve at half-maximal effect.

Structure,Cruzain inh Det,RE007 growth inh,LASV entry inh,StopGo reporter,MARV entry inh,Cruzain noTriton,SARS PLpro yeast,NS1 function inh
CC1=C(C(=O)N2CCOCC2)C(c2c(F)cccc2F)NC(=O)N1 (configuration not stated),x,16.2%,30.0%[46.1 µM],-13.0%,3.4%[46.1 µM],x,-1.0%,4.7%
O=Cc1ccccc1Oc1nc(N2CCOCC2)nc(N2CCOCC2)n1,x,-4.2%,8.6%[46.1 µM],u,u,x,0.5%,x
CN1C(=O)N(CC(=O)Nc2cccc(S(=O)(=O)N(C)c3ccccc3)c2)C(=O)C12CCCCC2,x,3.9%,u,u,u,x,1.4%,x
O=C(N/N=C/c1ccco1)c1cc(-c2ccncc2)nc2ccccc12,x,7.3%,x,-11.3%,x,x,5.3%,-10.2%
CCCCN=CC1=C(O)CC(c2ccccc2)CC1=O (configuration not stated),x,6.1%,-23.5%,4.6%,u,x,0.0%,-6.5%
CCC(=O)c1ccc(OCC(O)CNC2CCCC2)cc1 (configuration not stated),x,-20.5%,x,-17.3%,x,x,6.6%,-8.4%
CCN(CC)CCNc1nc(SC)nc2sc3c(c12)CCN(C)C3,x,3.7%,u,-5.9%,7.08µM*,x,0.0%,5.3%
O=C(CN1CCCCC1)Nc1cccc(Cl)c1Cl,-0.6%,-18.7%,1.5%,3.3%,22.2%,-27.7%,-2.1%,0.1%
CC(=O)Nc1cc(C(=O)N2CCC3(CC2)OCCO3)ccc1S(=O)(=O)c1ccc(Cl)cc1,3.3%,6.9%,11.9%,24.3%,5.4%,10.3%,-2.2%,-0.2%
[O-]C1=N/[N+](=C/c2ccccc2)CC1,x,17.0%,x,1.6%,x,x,0.1%,5.4%
COc1ccc(OC)c2c1sc(=NC(=O)C(C)(C)C)n2C,1.9%,3.1%,x,0.0%,x,-20.7%,1.9%,-1.4%
O=C(CN1CCN(c2ccccc2)CC1)Nc1ccc(-n2cnnn2)cc1,5.7%,3.9%,-24.2%,x,12.1%,-15.6%,3.9%,-9.4%
COC(=O)c1sc(NC(C)=O)c(C(=O)OC)c1C,-3.6%,-12.9%,20.4%,-16.6%,5.4%&5.4%,-2.8%,2.0%,-0.9%
c1ccc(OCCN2CCN(Cc3nc(-c4ccc5c(c4)OCO5)no3)CC2)cc1,x,-6.4%,x,u,x,x,-0.3%,-3.2%
Cc1sc2ncnc(N3CCN(S(=O)(=O)c4ccc(F)cc4)CC3)c2c1C,x,8.4%,u,u,u,x,0.2%,-7.4%
COCCNc1nnc(Cc2ccc(Cl)cc2)c(=O)[nH]1,x,1.5%,x,-19.0%,x,x,0.4%,10.9%
CCOc1ccccc1CN1CCCC(C(=O)Nc2cccc(-n3cccn3)c2)C1 (configuration not stated),x,-25.5%,x,u,x,x,3.0%,0.9%
COc1ccc(-n2nc(C(=O)NCC(=O)NCc3ccc(F)cc3)c3ccccc3c2=O)cc1OC,x,0.7%,u,u,u,x,0.9%,4.4%
CCOc1ccc(N(C)S(=O)(=O)c2ccc3[nH]cc(C(=O)NCc4ccccc4)c(=O)c3c2)cc1,-1.3%,x,4.1%[46.1 µM],-7.6%,x,-8.0%,x,x
O=C(NNC(=S)Nc1cccc(Cl)c1)c1ccccc1,x,16.3%,-18.7%[46.1 µM],46.4%[activator],u,x,u,-25.6%
CC(C)(C)c1cc(N)n2nc(C(C)(C)C)cc2n1,x,-8.3%,12.3%,-9.9%,-12.2%,x,0.4%,2.3%
Cc1ccc(-n2c(C)cc(/C=N/NC(N)=S)c2C)cc1,u,2.8%,u,-8.8%,u,u,11.2µM*,3.6%
COc1cccc(CN2CCN(Cc3cccc(Oc4ccccc4)c3)CC2)c1OC,x,5.2%,21.6%[46.1 µM],-21.0%,-17.3%[46.1 µM],x,-0.7%,-5.8%
Cc1ccc(OCc2nc(-c3cccs3)no2)c([N+](=O)[O-])c1,x,-4.2%,u,-20.8%,u,x,-0.6%,x
Cc1cccc(C)c1NC(=O)c1ccc([N+](=O)[O-])s1,-5.9%,-7.0%,5.1%,-19.3%,-8.4%,-2.9%,-47.1%,-42.9%
CCOC(=O)c1c(C)[nH]c(C)c1S(=O)(=O)N1CCC(C(=O)N2CCN(c3ccc(Cl)cc3)CC2)CC1,-2.5%,x,u,-17.8%,x,u,x,x
N#Cc1c(NC(=O)CN2CCCCC2)sc2c1CCC2,1.9%,4.4%,11.6%,17.0%,-5.3%,11.4%,-3.6%,-2.8%
Cc1cc[n+](CC2OCc3ccccc3CO2)cc1,x,-7.2%,x,-1.9%,x,x,-1.2%,2.1%
O=C(CSc1nnc(COc2ccccc2)n1Cc1ccco1)Nc1ccc2c(c1)OCCO2,-2.9%,0.5%,u,-13.1%,-19.8%,12.3%,u,-44.0%
CCOC(=O)C1CCCN(C(=O)Cn2nc(CC)n3c(cc4sccc43)c2=O)C1 (configuration not stated),-1.4%,4.4%,x,u,3.2%,-10.7%,u,-9.8%
Cn1c(SCC(=O)C(C)(C)C)nnc1-c1ccncc1,6.4%,-5.1%,10.6%,-11.4%,2.5%,1.3%,9.7%,8.1%
CN(C(=O)CSc1nnc(Nc2ccccc2)s1)c1c(N)n(Cc2ccccc2)c(=O)[nH]c1=O,-3.8%,-5.9%,-16.7%,-2.2%,-7.6%,-3.9%,-5.3%,-3.8%
COC(=O)c1ccccc1NC(=O)C1CC(=O)N(c2ccc(C)c(C)c2)C1 (configuration not stated),-0.2%,-13.0%,-9.9%,-28.9%,u,-3.0%,2.5%,-24.0%
CN(C)S(=O)(=O)N(CC(=O)NCCSCc1ccc(Cl)cc1Cl)c1ccccc1,-7.9%,x,-1.6%[46.1 µM],u,-24.1%[46.1 µM],u,x,x
COc1nc(NCc2cccnc2)nc(OC)n1,1.0%,0.5%,-12.7%,-2.6%,4.7%,3.7%,10.5%,13.4%
N#Cc1c(N)sc(=S)c2c1CCN(Cc1ccccc1)C2,28.2µM*,x,x,x,x,12.6µM*,-21.5%,-13.0%
Cc1ccc(SCCC(=O)NCc2ccncc2)cc1,x,3.5%,4.2%[46.1 µM],-8.7%,12.8%[46.1 µM],x,-0.5%,0.7%
Cc1cc(C)cc(N(C(C)C(=O)NCc2ccc3c(c2)OCO3)S(C)(=O)=O)c1 (configuration not stated),x,-7.7%,10.1%[46.1 µM],-7.5%,-18.5%[46.1 µM],x,-0.2%,-2.3%
Cc1ccc(-n2c(-c3ccncc3)n[nH]c2=S)c(C)c1,x,1.2%,x,-13.1%,x,x,1.3%,0.3%
O=c1[nH]cnc2scc(-c3ccccc3)c12,1.3%,13.0%,-10.1%,6.5%,0.8%,1.6%,0.7%,-6.6%
Cc1ccccc1OCCn1cc(/C(N)=N/O)c2ccccc21,3.3%,0.3%,15.1%,28.2µM*,u,-1.7%,16.8%,-5.4%
CCCCOC(=O)c1ccc(N2C(=O)CC(N3CCN(C/C=C/c4ccccc4)CC3)C2=O)cc1 (configuration not stated),-2.3%,-15.3%,5.0%,u,4.3%,-6.0%,-4.6%,-47.8%
CCC1CCCCN1C(=O)c1ccc([N+](=O)[O-])o1 (configuration not stated),x,-20.9%,12.3%[46.1 µM],74.7%[activator],u,x,-5.9%,-2.3%
O=C1c2ccccc2NC(c2ccccc2)N1/N=C/c1ccccc1 (configuration not stated),-4.3%,-22.2%,u,13.2%,u,-0.1%,-11.3%,-36.7%
COc1cc(OC)c(S(=O)(=O)NCc2ccco2)cc1S(=O)(=O)NCc1ccco1,6.8%,3.2%,12.9%,68.6%[activator],5.4%&5.4%,10.7%,8.2%,15.1%
COc1ccc(-c2cc(-c3cccs3)c(C#N)c(SCC(=O)NCc3ccccc3)n2)cc1,4.1%,5.9%,u,7.3%,u,7.94µM*,0.9%,5.1%
N#Cc1cc2nc(O)c(O)nc2cc1[N+](=O)[O-],-5.0%&5.0%,-15.9%[18.4 µM],12.4%,-10.4%&-15.5%,14.5%&14.5%&14.5%&-14.6%&14.5%,-5.9%&4.4%,x,-3.1%
CCOc1ccc(S(=O)(=O)N/N=C(\C)c2ccc(OC)cc2OC)cc1,x,u,u,6.5%,28.7%[46.1 µM],x,-0.1%,x
Cc1cccc(C)c1NC(=O)C1(NC(=O)Cn2cccc([N+](=O)[O-])c2=O)CCCCC1,-4.3%,7.3%,-5.6%,-15.6%,u,-5.0%,7.2%,-0.8%
CCCn1c(SCC(=O)N2CCCCC2)nnc1C(C)C,x,8.3%,2.1%,-5.1%,4.2%[46.1 µM],x,-1.0%,1.0%

Further entries follow.
Structure,Cruzain inh Det,RE007 growth inh,LASV entry inh,StopGo reporter,MARV entry inh,Cruzain noTriton,SARS PLpro yeast,NS1 function inh
O=C(NNS(=O)(=O)c1ccc2ccccc2c1)C1CCN(Cc2ccccc2)CC1,3.1%,-5.2%,10.1%,-17.2%,u,8.6%,15.9%,21.6%
O=C(NCCCn1ccnc1)/C(=C/c1cccs1)NC(=O)c1ccco1,x,-5.6%,x,-13.4%,x,x,0.2%,-0.9%
O=S(=O)(c1ccc(Cl)cc1)N1CCN(C(=S)Nc2ccccc2F)CC1,x,u,-12.0%[46.1 µM],-19.1%,-11.8%[46.1 µM],x,0.1%,x
COc1ccc(OC)c(NC(=O)c2ccc3c(c2)c(C)c(C)n3Cc2ccc(F)cc2)c1,0.5%,x,10.1%[46.1 µM],-0.5%,x,5.01µM*,x,x
Fc1ccc(Nc2nc(N3CCOCC3)c3ccccc3n2)cc1,u,1.6%,u,u,15.8µM*,15.8µM*,-5.7%,-108.4%
CCN1CCN(c2ccc(S(=O)(=O)N3CCCCC3)cc2NC(=O)/C=C/c2ccc([N+](=O)[O-])cc2)CC1,x,-12.8%,-15.3%,u,u,x,-0.4%,x
COc1nc(Oc2ccc(=O)n(C)n2)nc(N(C)C)n1,3.3%,-1.9%,1.8%,-11.7%,16.5%,3.2%,2.4%,-0.3%
C/C(=N\NC(=O)c1ccncc1)c1c(O)n(-c2ccccc2)c(=O)[nH]c1=O,x,33.2%,x,u,x,x,0.5%,-2.2%
